MLL AF4-AF9 inh: inhibitors of AF4 peptide binding to AF9, primary screen, biochemical, AlphaScreen, biotin-AF4 peptide, FLAG-AF9, single point. Protein AF-9 (Homo sapiens), P42568. inhibition, % at 10 µM. 350,000 tested, 0.47% active;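 active means every replicate reaching a set inhibition limit, whatever the replicate mean, cut at about 25% in these data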;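 further: 0% = plate neutral control median and 100% = total signal loss; the record names both 10 and 1 µM as test concentration; the first replicate is given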
Target sequence (P42568 whole entry, looked up): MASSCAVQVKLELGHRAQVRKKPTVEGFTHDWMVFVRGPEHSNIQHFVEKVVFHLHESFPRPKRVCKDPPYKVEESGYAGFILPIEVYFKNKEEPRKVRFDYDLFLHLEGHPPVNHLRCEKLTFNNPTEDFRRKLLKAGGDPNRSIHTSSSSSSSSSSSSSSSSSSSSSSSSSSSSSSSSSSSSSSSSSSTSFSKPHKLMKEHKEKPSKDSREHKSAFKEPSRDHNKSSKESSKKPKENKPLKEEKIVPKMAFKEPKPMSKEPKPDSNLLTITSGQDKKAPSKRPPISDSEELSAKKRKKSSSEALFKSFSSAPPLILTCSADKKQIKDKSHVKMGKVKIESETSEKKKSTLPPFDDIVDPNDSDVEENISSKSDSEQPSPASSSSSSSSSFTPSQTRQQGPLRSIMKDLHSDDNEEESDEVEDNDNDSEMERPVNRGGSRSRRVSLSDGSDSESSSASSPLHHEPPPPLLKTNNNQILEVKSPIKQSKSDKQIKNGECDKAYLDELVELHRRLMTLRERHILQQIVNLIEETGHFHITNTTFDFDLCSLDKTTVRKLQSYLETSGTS
FGF22 binding: binders of human FGF22 protein, primary screen, FGF22 synaptogenesis inhibitor project, biophysical, thermal shift, single point; 340,000 tested, 1.5% active; recombinant FGF22 thermal shift, SYPRO orange fluorescence; percent of sucrose octasulfate shift, DMSO zero; Fibroblast growth factor 22 (Homo sapiens), Q9HCT0; calls only at 9.99 µM;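 active means melting point raised past a set limit in the mean and every replicate; three in four hits are not shown here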
Target sequence (Q9HCT0 whole entry, looked up): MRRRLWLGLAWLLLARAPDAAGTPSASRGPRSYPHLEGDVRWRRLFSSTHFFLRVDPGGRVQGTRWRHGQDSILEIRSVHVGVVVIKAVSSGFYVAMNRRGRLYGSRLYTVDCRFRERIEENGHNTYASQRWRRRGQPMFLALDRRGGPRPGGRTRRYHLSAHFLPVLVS
Ecoli rRNA inh: reduced GFP signal of wild-type E. coli, primary screen, bacterial rRNA inhibitor project, GFP/RFP fluorescence, OD600, single point | AID 720706, 2013 | E. coli WT GFP vs humanized-ribosome RFP mutants, 24 h; stronger effect = lower value; DMSO median 0, no signal -100 | GFP signal change (wild-type ribosome), % (concentration not given with the values) | 350,000 tested, 1.6% active;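 active means significant combined selectivity score with lowered wild-type GFP, culture density cut under 30%, mutant RFP and density less affected; inactive means any of these conditions unmet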; further: one replicate is shown; some compounds called inactive have numbers as strong as hits
Ecoli rRNA inh OD600: second read-out of Ecoli rRNA inh, no call of its own (marks repeat the call); OD600 change, %; measured here: OD600 growth;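 optical density of the mix in the first replicate; 0 = DMSO median and -100 = no signal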
Ecoli rRNA inh RFP: also measured in Ecoli rRNA inh; calls as there; RFP signal change, %; measured here: RFP humanized mutant strains;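 first replicate; 0 = DMSO median and -100 = no signal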
The depositor's hits bear a star; i = inactive; / = no result given. An excerpt; count on the stated rates, not on these rows.

SMILES	MLL AF4-AF9 inh	FGF22 binding	Ecoli rRNA inh	Ecoli rRNA inh OD600	Ecoli rRNA inh RFP
Cc1ccc(-c2ccc3c(c2)O[C@@H](CN(C)C(=O)CN(C)C)[C@H](C)CN([C@@H](C)CO)S3(=O)=O)cc1	1.0	i	-1	2	-3.6
CC(C)NC(=O)N(C)C[C@@H]1Oc2ccc(N(C)C)cc2CC(=O)N([C@H](C)CO)C[C@H]1C	-2.2	i	2	0	-3.4
O=C(C[C@H]1CC[C@H]2[C@@H](COC[C@@H](O)CN2C(=O)c2ccccc2F)O1)NCc1ccc(Cl)cc1	-1.7	i	4	1	-4.7
O=C(C[C@@H]1CC[C@@H]2[C@H](COC[C@@H](O)CN2Cc2ccncc2)O1)NCC1CC1	-1.9	i	-1	2	-7.7
COc1ccc(CN(C)C[C@H]2OCCCC[C@H](C)Oc3ccc(NC(=O)CCC(F)(F)F)cc3C(=O)N([C@@H](C)CO)C[C@H]2C)cc1	-0.4	i	-2	-9	1.2
COCC(=O)N(C)C[C@H]1Oc2cc(C#CCN(C)C)ccc2S(=O)(=O)N([C@H](C)CO)C[C@@H]1C	-2.8	i	-1	9	-2.0
NC(c1ccccc1)c1csc(Nc2ccc(C(=O)c3ccccc3)cc2)n1 (centres undefined)	7.3	i	-40	-68	-6.3
CCOC(=O)C1=CCC(c2ccccc2)N(S(=O)(=O)c2ccccc2)C1 (centres undefined)	-3.7	i	-12	-30	-6.5
C[C@H](O)C#Cc1ccc2c(c1)O[C@@H](CN(C)Cc1cncnc1)[C@H](C)CN([C@H](C)CO)S2(=O)=O	6.5	i	0	11	-4.5
C[C@H]1CN([C@@H](C)CO)C(=O)c2cccc(NC(=O)Nc3cccc4ccccc34)c2O[C@H]1CN(C)CC1CCCCC1	-3.1	i	-4	-16	2.4
C[C@H](CO)N1C[C@H](C)[C@@H](CN(C)S(=O)(=O)c2ccc(Cl)cc2)Oc2c(NS(=O)(=O)c3cn(C)cn3)cccc2C1=O	0.9	i	2	3	0.2
COc1cccc(-c2ccc3c(c2)[C@@H]2[C@@H](CCN2C(=O)Nc2ccccc2OC)[C@@H](CO)N3C)c1	-1.3	i	-9	5	-4.3
CCCCCCCCCCCCCCCC(=O)OCC1OC(n2ccc(N)nc2=O)C(O)C1O (centres undefined)	-2.2	i	4	10	-1.8
C[C@@H]1CN([C@@H](C)CO)C(=O)c2cccc(NS(=O)(=O)c3cn(C)cn3)c2O[C@@H]1CN(C)Cc1ccc(Oc2ccccc2)cc1	0.4	i	2	2	0.2
COc1ccc(S(=O)(=O)N(C)C[C@@H]2OCCCC[C@@H](C)Oc3ccc(NC(=O)c4ccncc4)cc3C(=O)N([C@@H](C)CO)C[C@H]2C)cc1	0.2	i	-8	-11	-0.1
N#C[C@H]1N[C@@H](CO)[C@@H]1c1ccc(C#Cc2ccccc2F)cc1	-1.3	i	3	-4	1.3
C[C@@H]1CN([C@@H](C)CO)S(=O)(=O)c2ccc(-c3cccnc3)cc2O[C@H]1CN(C)Cc1ccncc1	16	i	-3	-17	-4.0
COc1ccc(S(=O)(=O)Nc2ccc3c(c2)C(=O)N([C@H](C)CO)C[C@@H](C)[C@H](CN(C)C)O3)cc1	-2.5	i	2	9	-1.4
Cc1noc(C)c1S(=O)(=O)Nc1cccc2c1O[C@H](CN(C)Cc1ccc(-c3ccccc3)cc1)[C@H](C)CN([C@@H](C)CO)C2=O	3.8	i	2	4	2.1
CN(C)C(=O)c1cccc(-c2ccc([C@@H]3[C@@H](CO)N4CCCCN(CC5CCOCC5)C[C@H]34)cc2)c1	-1.1	i	5	3	0.3
Cc1noc(C)c1NC(=O)Nc1ccc2c(c1)C(=O)N([C@H](C)CO)C[C@@H](C)[C@@H](CN(C)C(=O)NC1CCCCC1)OCCCC[C@@H](C)O2	1.0	i	-1	-3	2.3
CNc1nc(N/N=C/c2cc([N+](=O)[O-])ccc2F)nc(Nc2ccccc2)n1	-5.4	i	-15	-14	-6.4
C[C@H]1CN([C@@H](C)CO)C(=O)c2cc(NC(=O)Cc3ccccc3)ccc2O[C@@H]1CN(C)S(=O)(=O)c1ccc(F)cc1	-0.1	i	-1	-4	2.6
Cc1ccc(CN2CCC=CS2(=O)=O)cc1	0.0	i	3	-4	0.3
CCC(=O)Nc1ccc2c(c1)OC[C@@H](C)N(CCc1ccccc1)C[C@@H](C)[C@@H](OC)CN(C)C2=O	1.3	i	3	1	1.8
C[C@@H]1CN([C@H](C)CO)C(=O)Cc2cc(NC(=O)Nc3ccc(F)cc3)ccc2O[C@H]1CN(C)S(=O)(=O)c1ccccc1	-1.7	i	-7	-13	3.3
COc1ccc(NC(=O)c2ccc3nc(C)c(N(C)C(=O)CCc4ccccc4)n3c2)cc1OC	0.5	i	2	8	-2.6
O=S(=O)(c1ccccc1)C(Br)S(=O)(=O)c1ccccc1	-5.5	i	13	8	0.5
COc1ccc(S(=O)(=O)N(C)C[C@@H]2Oc3ncc(C#Cc4ccc(F)cc4)cc3C(=O)N([C@H](C)CO)C[C@@H]2C)cc1	-2.6	i	-6	0	-4.5
Cc1noc(C)c1NC(=O)N[C@@H]1C=C[C@@H](CC(=O)N2CCCCC2)O[C@H]1CO	-2.2	i	6	7	-0.4
COc1cccc(S(=O)(=O)N(C)C[C@@H]2Oc3ncc(C#CC(C)C)cc3C(=O)N([C@H](C)CO)C[C@H]2C)c1	2.8	i	-6	-20	0.9
COc1ccc2c3c([nH]c2c1)[C@@H](CO)N(Cc1ccncc1)CC31CN(C(=O)Cc2ccncc2)C1	3.5	i	1	8	-1.3
O=C(c1ccccc1F)N1C[C@@H]2[C@H](c3ccccc31)[C@H](CO)N2C(=O)Nc1ccccc1	-2.3	i	2	1	-0.4
CN(C)CC(=O)N[C@H]1C=C[C@H](CC(=O)NCc2ccc(Cl)cc2)O[C@H]1CO	-2.3	i	0	16	1.1
COCC#Cc1ccc2c(c1)O[C@@H](CN(C)C(=O)CC1CC1)[C@H](C)CN([C@@H](C)CO)S2(=O)=O	-0.6	i	-1	-7	-3.2
COc1cccc(-c2ccc([C@@H]3[C@H](C#N)N(C(=O)c4ccccn4)[C@H]3CO)cc2)c1	-1.5	i	-21	-50	13
C[C@@H]1CN([C@@H](C)CO)C(=O)Cc2cc(NC(=O)CCC(F)(F)F)ccc2O[C@@H]1CN(C)CC1CCCCC1	-9.8	i	3	1	-1.7
COc1ccc(C(=O)N2C[C@H]3[C@@H](c4ccccc42)[C@@H](CO)N3Cc2ccccc2)cc1	-0.6	i	-3	-16	-0.8
C[C@H]1CN([C@@H](C)CO)C(=O)c2cccc(NC(=O)c3cnccn3)c2O[C@@H]1CN(C)C(=O)Nc1ccc(C(F)(F)F)cc1	-4.2	i	-2	0	-1.1
CCOc1ccc(-c2cc(C(=O)NCc3cc(OC)cc(OC)c3)[nH]n2)c(C)c1	1.3	i	6	26	-2.1
COc1ccc(C2C=CC(=O)CC2)c(OC)c1 (centres undefined)	-0.4	i	-1	5	-0.6
CCC(=O)N1CC[C@@H]2[C@@H](CO)Nc3ccc(C#Cc4cccnc4)cc3[C@@H]21	-13	i	3	8	-4.2
C[C@@H]1CN([C@@H](C)CO)C(=O)c2cc(-c3ccc(C(=O)N(C)C)cc3)cnc2O[C@H]1CN(C)C(=O)CN(C)C	-7.5	i	1	8	-2.0
CCC(=O)N1CC(=O)N2[C@H](C1)[C@H](c1ccc(C#CC3CCCCC3)cc1)[C@@H]2CO	1.1	i	5	-24	-2.7
O=C(C[C@H]1CC[C@H]2[C@@H](COC[C@@H](O)CN2C(=O)c2ccccc2)O1)NC1Cc2ccccc2C1	-0.2	i	-1	3	-2.3
O=C(OCc1cn([C@H]2CN(Cc3cccs3)[C@@H](c3ccccc3)C[C@@H]2O)nn1)c1ccccc1	3.2	i	0	-3	-4.2
C[C@H]1CN([C@@H](C)CO)C(=O)Cc2cc(NC(=O)CCCN(C)C)ccc2O[C@H]1CN(C)CC1CCCCC1	-0.8	i	2	6	-2.0
C[C@@H]1CCCCO[C@@H](CN(C)C)[C@@H](C)CN([C@H](C)CO)C(=O)c2cc(NC(=O)Nc3ccccc3)ccc2O1	3.1	i	5	11	-2.1
CO[C@@H]1CN(C)C(=O)c2ccc(NC(=O)Nc3cccc(F)c3)cc2OC[C@@H](C)N(C(C)=O)C[C@H]1C	1.4	i	-4	-5	5.1
CO[C@H]1CN(C)C(=O)c2cc(NC(=O)Nc3ccccc3F)ccc2OC[C@@H](C)N(CC2CC2)C[C@@H]1C	6.1	i	-2	-2	1.3
C[C@H]1CN([C@@H](C)CO)C(=O)Cc2cc(NC(=O)C3CC3)ccc2O[C@@H]1CN(C)C	-1.0	i	0	8	0.9
C[C@H]1CN([C@@H](C)CO)C(=O)c2cccc(NS(=O)(=O)c3cn(C)cn3)c2O[C@@H]1CN(C)Cc1ccc(Oc2ccccc2)cc1	3.9	i	-3	3	-1.5
COc1ccc(C(=O)N2CCCCC2c2cc(C(=O)NCc3ccc(F)cc3)no2)cc1 (centres undefined)	1.5	i	-3	-8	5.5
C[C@@H]1CN([C@@H](C)CO)C(=O)c2cc(NC(=O)C3CCCCC3)ccc2O[C@@H]1CN(C)S(=O)(=O)c1ccc(F)cc1	0.8	i	-8	-12	3.2
C[C@@H]1CN([C@@H](C)CO)C(=O)c2cc(-c3cccnc3)cnc2O[C@@H]1CN(C)C(=O)c1ccccc1F	-8.2	i	6	19	-5.5
COC(=O)C1=C(C)N(Cc2cccc(C(F)(F)F)c2)C(=NCc2ccc(C(F)(F)F)cc2)NC1c1cccc(F)c1 (centres undefined)	1.2	/	-64	-75	-16
COc1ccccc1-c1cccc(-c2nc(C(=O)N3CCN(C)CC3)cc3c2[C@@H](CCO)N([S@](=O)C(C)(C)C)C3)c1	-1.6	i	1	0	4.4
CC(C(=O)NC1CCCC1)n1c(-c2ccncc2)nc2ccccc21 (centres undefined)	-1.8	i	2	13	-0.1
Cc1ccc(S(=O)(=O)N(C)C[C@@H]2Oc3c(NC(=O)Nc4ccc(C(F)(F)F)cc4)cccc3C(=O)N([C@@H](C)CO)C[C@@H]2C)cc1	0.8	i	3	-1	-1.3
O=C(COC(=O)CCNS(=O)(=O)c1ccc(Cl)cc1)NCc1ccccc1	1.7	i	2	-2	-1.3
C[C@@H]1CCCCO[C@H](CN(C)C)[C@H](C)CN([C@@H](C)CO)C(=O)c2cc(NC(=O)CCC(F)(F)F)ccc2O1	-6.6	i	3	5	0.5
Cc1noc(C)c1S(=O)(=O)Nc1ccc2c(c1)CC(=O)N([C@H](C)CO)C[C@@H](C)[C@@H](CN(C)Cc1ccc(C(=O)Nc3ccccc3N)cc1)O2	2.9	i	-4	-6	2.9
O=C(C[C@H]1CC[C@H]2[C@@H](COC[C@@H](O)CN2Cc2ccc(F)cc2)O1)NCc1ccccc1Cl	1.9	i	-3	-10	6.1

Copied from the list.
In Ecoli rRNA inh OD600, COC(=O)C1=C(C)N(Cc2cccc(C(F)(F)F)c2)C(=NCc2ccc(C(F)(F)F)cc2)NC1c1cccc(F)c1 (centres undefined) has the entry -75
In Ecoli rRNA inh, O=C(COC(=O)CCNS(=O)(=O)c1ccc(Cl)cc1)NCc1ccccc1 has the entry 2

In a second layout: results already given
> Cc1ccc(S(=O)(=O)N(C)C[C@@H]2Oc3c(NC(=O)Nc4ccc(C(F)(F)F)cc4)cccc3C(=O)N([C@@H](C)CO)C[C@@H]2C)cc1
  MLL AF4-AF9 inh: 0.8
  FGF22 binding: i
  Ecoli rRNA inh: 3
  Ecoli rRNA inh OD600: -1
  Ecoli rRNA inh RFP: -1.3

> O=C(COC(=O)CCNS(=O)(=O)c1ccc(Cl)cc1)NCc1ccccc1
  MLL AF4-AF9 inh: 1.7
  FGF22 binding: i
  Ecoli rRNA inh: 2
  Ecoli rRNA inh OD600: -2
  Ecoli rRNA inh RFP: -1.3

> C[C@@H]1CCCCO[C@H](CN(C)C)[C@H](C)CN([C@@H](C)CO)C(=O)c2cc(NC(=O)CCC(F)(F)F)ccc2O1
  MLL AF4-AF9 inh: -6.6
  FGF22 binding: i
  Ecoli rRNA inh: 3
  Ecoli rRNA inh OD600: 5
  Ecoli rRNA inh RFP: 0.5

> Cc1noc(C)c1S(=O)(=O)Nc1ccc2c(c1)CC(=O)N([C@H](C)CO)C[C@@H](C)[C@@H](CN(C)Cc1ccc(C(=O)Nc3ccccc3N)cc1)O2
  MLL AF4-AF9 inh: 2.9
  FGF22 binding: i
  Ecoli rRNA inh: -4
  Ecoli rRNA inh OD600: -6
  Ecoli rRNA inh RFP: 2.9

Bioassay records: PubChem, Broad Institute
